RE007 growth inh – less growth of the S. pombe RE007 Vpr strain. S. pombe RE007 Vpr strain, BacTiter-Glo ATP luminescence, 24 h; control for the full effect not named in the record. Potency, µM (series often up to 92.2 µM), for inactives: top-dose activity change, negative = less growth. actives 0.21% (n = 360,000); active = well fitted falling curve with a large enough effect; inconclusive = small, poorly fitted or top-dose-only effect; inactive = no such curve, though single readings can be large or run the other way;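 note: % is set by controls: 0 for no effect and ±100 for the full control effect; nearly all actives have a fitted effect of over 50% in size; the assay follows cell death caused by Vpr and the record does not say whether a fall means rescue or toxicity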
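Fission yeast RE007 carrying one integrated HIV-1 vpr copy, seeded at OD 0.01 in PMG+AL medium with 23 nL pinned compound. Grown 24 h at 30 degrees; viability read by BacTiter-Glo luminescence after 5 min.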
Cruzain Triton – blocks cruzain activity in presence of Triton detergent | P25779 | purified cruzain, Z-FR-AMC fluorescence, 0.01% Triton | Potency, µM, for inactives: max response, negative = inhibition, hits mostly inhibitors | actives 0.43% (n = 200,000) | AID 1478;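 note: plate controls were neutral wells for no effect and buffer without enzyme for full effect; nearly all actives have a fitted effect of over 40% in size; top concentration of the series not given in the record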
Target sequence (P25779 123-467 limits assumed): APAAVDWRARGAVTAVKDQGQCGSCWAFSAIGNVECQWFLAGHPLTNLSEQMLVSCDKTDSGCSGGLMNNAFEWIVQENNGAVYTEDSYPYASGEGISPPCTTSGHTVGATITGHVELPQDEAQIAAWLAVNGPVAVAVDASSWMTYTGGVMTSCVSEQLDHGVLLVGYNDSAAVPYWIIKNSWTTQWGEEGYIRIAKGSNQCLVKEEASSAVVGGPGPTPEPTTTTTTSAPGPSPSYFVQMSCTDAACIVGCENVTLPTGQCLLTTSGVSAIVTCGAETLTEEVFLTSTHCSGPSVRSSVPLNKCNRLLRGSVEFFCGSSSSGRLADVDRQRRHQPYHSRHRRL
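Detergent-containing run (0.01% Triton X-100) in acetate buffer pH 5.5 with 5 mM DTT: enzyme at 1.5 nM final, 15 min compound preincubation at room temperature, then 2 uM Z-FR-AMC substrate. Activity taken as 60 s fluorescence increase at 360/450 nm.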
MARV entry inh – blocks Marburg virus binding to or entry into cells; Marburg virus pseudotyped entry inhibition, cell reporter; control for the full effect not named in the record; about a third of the inactives were read at about 46 µM; actives 1.8% (n = 300,000); Potency, µM (doses to about 37.8 µM), without a hit: at the highest dose activity change, negative = inhibition, hits mostly inhibitors; active = well fitted inhibition curve with a large enough effect; inconclusive = small, poorly fitted or top-dose-only effect, or effect the other way; inactive = flat fitted curve, though single readings scatter; tested in HEK293 cells; about a fifth of its hits are not listed in these tables; note: % is set by controls: 0 for no effect and ±100 for the full control effect; luciferase read-out
SARS PLpro yeast – inhibitors of SARS-CoV papain-like protease in yeast | S. cerevisiae expressing SARS-CoV PLpro, growth rescue; control for the full effect not named in the record | Potency, µM (highest dose often 32.9 µM), for the others: at the top dose activity, positive = growth rescue | actives 0.19% (n = 330,000) | AID 485353; active means well fitted rising curve with a large enough effect; inconclusive means small, poorly fitted or top-dose-only effect; inactive means no such curve, though single readings can be large or run the other way; note: 0% is about no effect; nearly all actives have a fitted effect of over 55% in size; growth read by luminescence after 48 h
Lassa entry inh – blocks Lassa virus binding to or entry into cells. AID 540256. Potency, µM (doses to about 37.9 µM), without a hit: at the highest dose activity change, negative = inhibition, most hits filed as inhibitors. actives 1.2% (n = 300,000). Lassa virus pseudotype entry inhibition, cell reporter; control for the full effect not named in the record; active means well fitted inhibition curve with a large enough effect; inconclusive means small, poorly fitted or top-dose-only effect, or effect the other way; inactive means flat fitted curve, though single readings scatter; tested in HEK293 cells; note: % is set by controls: 0 for no effect and ±100 for the full control effect; nearly all actives have a fitted effect of over 50% in size; luciferase read-out
StopGo reporter – FMDV 2A StopGo reporter, luciferase signal; human cells with a luciferase reporter of 2A StopGo recoding; control for the full effect not named in the record; Potency, µM (series often up to 57.9 µM), inactives show top-dose signal change, negative = less light; actives 1.2% (n = 410,000); AID 1159524; active = well fitted falling curve with a large enough effect; inconclusive = small, poorly fitted or top-dose-only effect; inactive = no such curve, though single readings can be large or run the other way; tested in HEK293T cells; note: % is set by controls: 0 for no effect and ±100 for the full control effect; nearly all actives have a fitted effect of over 45% in size; luciferase light after 4 h
Cruzain inh noDet – inhibitors of Trypanosoma cruzi cruzain without detergent. P25779. purified cruzain, Z-FR-AMC fluorescence, no detergent. Potency, µM, for inactives: max response, negative = inhibition, most hits filed as inhibitors. actives 2.3% (n = 200,000);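 note: plate controls were enzyme without inhibitor for no effect and buffer without enzyme for full effect; nearly all actives have a fitted effect of over 40% in size; top concentration of the series not given in the record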
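Detergent-free condition (0.00005% Triton X-100) in acetate buffer pH 5.5 with DTT. 1.5 nM enzyme and compound were pre-mixed 15 min, then 2 uM Z-FR-AMC substrate added; reaction progress from fluorescence change between first and third reads (60 s).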
NS1 function inh – inhibitors of influenza NS1 protein function; S. cerevisiae slowed by influenza A NS1, growth recovery by OD600; Potency, µM (series often up to 46.1 µM), for the others: top-dose activity, positive = more growth; actives 0.4% (n = 270,000); AID 2326; active means well fitted rising curve with a large enough effect; inconclusive means small, poorly fitted or top-dose-only effect; inactive means no such curve, though single readings can be large or run the other way; note: nearly all actives have a fitted effect of over 50% in size
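OD600 was taken as the measure of yeast growth restored by compound in an NS1-expressing S. cerevisiae strain. Cells had been washed out of glucose medium and diluted 1:100 into galactose -URA medium, pH 6.0.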
The depositor's hits bear a star; ? = inconclusive; nt = no result given; & = joins results of further samples; [ ] = another dose, or the depositor's remark. Unless noted, calls come from the whole dose curve; as a rule, active = well fitted curve in the direction sought with a large enough effect; inconclusive = small, poorly fitted or top-dose-only effect, or another doubt; inactive = no such curve, though single readings can be large; an effect the other way counts as inactive or inconclusive. Potency is the fitted concentration of half-maximal effect.

SMILES	RE007 growth inh	Cruzain Triton	MARV entry inh	SARS PLpro yeast	Lassa entry inh	StopGo reporter	Cruzain inh noDet	NS1 function inh
CCCCn1nnnc1NCc1cccc(OC)c1OC	7%	3.7%	20%	1%	2%	44%[activator]	-2%	1%
Cc1ccc(S(=O)(=O)N2CCOCC2)cc1C(=O)Nc1ccc(C(N)=O)cc1	0%	nt	nt	0%	nt	-11%	nt	-1%
Cc1nnc2ccc(-c3ccc(NS(C)(=O)=O)cc3)nn12	-4%	nt	1%[46.1 µM]	0%	-28%[46.1 µM]	1%	nt	-2%
CC(=O)c1c(-c2ccccc2)[nH]c2ccccc12	0%	nt	-22%	-6%	-15%	0%	nt	-41%
CC(=O)c1ccc(S(=O)(=O)Nc2ccc(-c3cn4c(n3)SCC4)cc2)cc1	3%	nt	20%	-1%	-9%	7%	nt	nt
COc1ccccc1N1CCN(Cc2ccccc2)CC1	-21%	nt	nt	8%	nt	3%	nt	2%
CCNC(=O)C1CCCN(c2nc(C)cc(C)n2)C1 (stereo not drawn)	-3%	nt	nt	-3%	nt	-2%	nt	1%
CN(CC(=O)Nc1ccc(N2CCOCC2)cc1)CC(=O)Nc1ccc(C(F)(F)F)cc1	-2%	nt	24%[46.1 µM]	2%	-1%	-17%	nt	nt
O=C(NCCc1ccc(Cl)cc1)C1CCCO1 (stereo not drawn)	-14%	nt	1%	0%	12%	10%	nt	3%
COc1ccc(N2CCN(Cc3cc4c(cc3Br)OCCO4)CC2)cc1	5%	nt	-13%[46.1 µM]	-3%	-20%	-28%	nt	-7%
CCCCC(=O)Nc1cc(-c2nc3cccnc3s2)ccc1C	nt	-8.4%	nt	nt	19%[46.1 µM]	27%	-1%	nt
COc1ccc(NC(=O)CN(C)S(=O)(=O)c2ccc(Cl)cc2)c([N+](=O)[O-])c1	17%	2.6%	-8%	-3%	-6%	4%	-22%	3%

Nine consecutive compounds out of the list so far:
SMILES	RE007 growth inh	Cruzain Triton	MARV entry inh	SARS PLpro yeast	Lassa entry inh	StopGo reporter	Cruzain inh noDet	NS1 function inh
CC(=O)c1c(-c2ccccc2)[nH]c2ccccc12	0%	nt	-22%	-6%	-15%	0%	nt	-41%
CC(=O)c1ccc(S(=O)(=O)Nc2ccc(-c3cn4c(n3)SCC4)cc2)cc1	3%	nt	20%	-1%	-9%	7%	nt	nt
COc1ccccc1N1CCN(Cc2ccccc2)CC1	-21%	nt	nt	8%	nt	3%	nt	2%
CCNC(=O)C1CCCN(c2nc(C)cc(C)n2)C1 (stereo not drawn)	-3%	nt	nt	-3%	nt	-2%	nt	1%
CN(CC(=O)Nc1ccc(N2CCOCC2)cc1)CC(=O)Nc1ccc(C(F)(F)F)cc1	-2%	nt	24%[46.1 µM]	2%	-1%	-17%	nt	nt
O=C(NCCc1ccc(Cl)cc1)C1CCCO1 (stereo not drawn)	-14%	nt	1%	0%	12%	10%	nt	3%
COc1ccc(N2CCN(Cc3cc4c(cc3Br)OCCO4)CC2)cc1	5%	nt	-13%[46.1 µM]	-3%	-20%	-28%	nt	-7%
CCCCC(=O)Nc1cc(-c2nc3cccnc3s2)ccc1C	nt	-8.4%	nt	nt	19%[46.1 µM]	27%	-1%	nt
COc1ccc(NC(=O)CN(C)S(=O)(=O)c2ccc(Cl)cc2)c([N+](=O)[O-])c1	17%	2.6%	-8%	-3%	-6%	4%	-22%	3%

Later entries:
SMILES	RE007 growth inh	Cruzain Triton	MARV entry inh	SARS PLpro yeast	Lassa entry inh	StopGo reporter	Cruzain inh noDet	NS1 function inh
Cn1c(=O)c([N+](=O)[O-])c(NCCc2ccccc2)c2ccccc21	-8%	-6.0%	-23%	-14%	-11%	?	-13%	-7%
O=C(COC(=O)c1ccccc1)NC12CC3CC(CC(C3)C1)C2	23%	nt	29%	-6%	13%	60%[activator]	nt	nt
CCOc1ccc(CCNC(=O)c2cnc3sc(N4CCCCC4)nn3c2=O)cc1	nt	2.3%	nt	nt	?	?	3%	nt
CCn1ncc(C2=NOC(C(=O)NCc3ccc(OC)cc3)C2)c1C (stereo not drawn)	14%	4.1%	?	3%	-25%	-18%	-4%	-65%
O=C(CN1C(=O)NC2(CCCCC2)C1=O)N1CCN(C(=O)c2cccs2)CC1	-4%	nt	4%	3%	3%	-14%	nt	nt
O=C(Nc1ccc(N2CCOCC2)cc1)Nc1ccc2nsnc2c1	12%	nt	3%[46.1 µM]	1%	16%[46.1 µM]	-8%	nt	-4%
COc1ccc(NC(=O)CSc2nnc(-c3ccccc3)n2N)cc1	0%	-6.4%	1%[46.1 µM]	5%	22%	6%	-9%	-1%
Cc1[nH]c(=O)[nH]c(=O)c1S(=O)(=O)N1CCCC(C(=O)NCc2ccco2)C1 (stereo not drawn)	19%	-7.7%	?	6%	0%	5%	5%	?
COc1ccc(-n2c(C)nn(CC3CC3)c2=O)cc1	29%	nt	23%[46.1 µM]	0%	11%	-2%	nt	4%
COc1cccc(OCc2cc(C(=O)N3C[C@H]4C[C@@H](C3)c3cccc(=O)n3C4)no2)c1	5%	nt	?	0%	-18%[46.1 µM]	31%[activator]	nt	-10%
CN(C(=O)CC(=O)Nc1ccc(Cl)c(Cl)c1)c1ccccc1	-6%	nt	-10%[14.2 µM]	0%	17%	21%	nt	nt
O=C(NC1CCCN(Cc2ccc(Cl)cc2)C1)c1ccoc1 (stereo not drawn)	10%	nt	-7%[46.1 µM]	nt	6%[46.1 µM]	-26%	nt	6%
COc1ccc(-c2c(C)c3ccc(O)cc3oc2=O)cc1OC	1%	nt	nt	-4%	nt	15%	nt	1%
O=C(NCCN1CCOCC1)c1csc2c1CCCC2	4%	-2.5%	13%	?	0%	nt	-8%	-5%
CCNc1ccc(C(=O)Nc2ccc3nc(C)sc3c2)cc1[N+](=O)[O-]	4%	-4.7%	14%	-28%	0%	-18%	-2%	-16%
COc1ccccc1CN(C)C(=O)CN1CCN(CC(=O)Nc2ccccc2Cl)CC1	-5%	nt	?	-3%	-13%	-6%	nt	nt
COc1ccc(NS(=O)(=O)c2ccc3c(c2)CCO3)cc1	4%	nt	?	1%	-1%[46.1 µM]	3%	nt	0%
Cn1cccc1C(=O)N1CCN(c2cccc(C(F)(F)F)c2)CC1	-16%	-3.8%	-9%	-4%	14%	-25%	28%	3%
CCOc1ccccc1/C=N/Nc1ccc(Cl)nn1	-7%	nt	-5%	-1%	11%	5%	nt	-5%
CCOC(=O)Cc1nnc(NC(=O)CSc2ccc(C)cc2)s1	7%	-0.3%	17%	1%	?	0%	-12%	0%
CC(=O)O[C@]1(C(C)=O)CC[C@H]2[C@@H]3C[C@H](C)C4=CC(=O)CC[C@]4(C)[C@H]3CC[C@@]21C	-24%	-6.8%&3.1%	-41%	-14%	?	?	?	-36%
CCc1nn(C(C)C(=O)N2CCc3ccccc3C2)c(=O)c2cc3occc3n12 (stereo not drawn)	-6%	-0.9%	-9%	1%	-15%	4%	-5%	15%
CCOc1ccc2nc(N3CCCC(C(=O)NCc4ccc(OC)cc4)C3)sc2c1 (stereo not drawn)	nt	0.1%	?	nt	nt	36%[activator]	30%	nt
CN(CC(=O)Nc1ccccc1C(F)(F)F)C(=O)CSCc1ccccc1	7%	nt	-11%[46.1 µM]	-4%	-23%	-9%	nt	nt
CC(C)NS(=O)(=O)c1ccc(OCC(=O)NCCC2=CCCCC2)cc1	13%	3.4%	-18%	4%	?	17%	9%	-6%
Cc1nnc(NC(=O)CSc2nccn2-c2ccc(Cl)cc2)s1	nt	-0.3%	nt	nt	11%[46.1 µM]	-10%	15%	nt
C/C(CC(=O)Nc1cc(C)ccn1)=N\NC(=O)c1ccc(C)cc1	7%	nt	21%[46.1 µM]	0%	8%	3%	nt	7%
Cc1ccc(C(=O)N2CCN(c3ccccn3)CC2)cc1C	-1%	nt	nt	3%	nt	-12%	nt	-6%
CCC(C(=O)Nc1ccccc1OC)n1c(C(=O)OC)cc2ccsc21 (stereo not drawn)	10%	-6.4%	?	-9%	-1%	nt	12%	-37%
Cc1cccc(Cn2c(=O)n(CCCC(=O)NCc3ccco3)c(=O)c3ccccc32)c1	8%	-3.0%	?	-2%	?	?	6%	12%
O=C(COC(=O)Cc1ccc(F)cc1)Nc1ccc2[nH]c(=O)[nH]c2c1	7%	nt	11%	-5%	-3%	-16%	nt	nt
CC(=O)Nc1ccc(-c2csc(Nc3ccccn3)n2)cc1	-11%	nt	nt	2%	nt	-31%	nt	1%
CSc1cccc(NC(=O)C2CCCN(C(=O)c3cnn(-c4ccc(F)cc4)c3-n3cccc3)C2)c1 (stereo not drawn)	nt	-7.3%	nt	nt	-14%[46.1 µM]	?	?	nt
CCn1c(SCC(=O)Nc2c(C)n(C)n(-c3ccccc3)c2=O)nnc1-c1cccc(C)c1	-3%	-3.2%	-6%[46.1 µM]	-2%	-2%	-2%	0%	-4%
CC(C)c1ccc(-n2c(O)c(C=NC(CCS(C)=O)C(=O)O)c(=O)[nH]c2=S)cc1 (stereo not drawn)	3%	nt	nt	5%	nt	6%	nt	1%
Nc1nc(SCC(=O)N2CCc3ccccc32)[nH]c(=O)c1-c1ccccc1	5%	-0.4%	-4%	-3%	28%	-17%	-25%	-2%
O=C(Nc1ccc(N2CCOCC2)cc1)c1ccccc1SCC(=O)N1CCCC1	-2%	nt	4%[46.1 µM]	0%	-13%	10%	nt	0%
CC(C)(C)OC(=O)N1CCC(c2c(C(=O)NCc3cccs3)cnn2-c2ccc(F)cc2F)CC1	nt	-8.6%	nt	nt	?	-24%	18%	nt
COc1ccccc1OCc1nc(C#N)c(N2CCC(C(N)=O)CC2)o1	13%	2.4%	3%	8%	12%	-2%	4%	4%
CCn1nnnc1-c1ccc(OC)c(S(=O)(=O)Nc2ccc(S(N)(=O)=O)cc2)c1	-1%	nt	-16%[14.2 µM]	0%	22%	-2%	nt	nt
